DUX4 inh: blocks DUX4-driven transcriptional activation; 293T-iDUX4 ZSCAN4-Gaussia luciferase reporter, 24 h; active compounds read low; actives 0.8% (n = 37,000); activity change, negative = inhibition, % (no concentration beside the values);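 active = -10% or lower and over 25 points stronger than a control reporter; inconclusive = -10% or lower with a smaller gap; inactive = above -10%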;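 note: 0% = median of neutral control wells and -100% = median of positive control wells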
DUX4 inh difference: further read-out of DUX4 inh, marked with its call; Gaussia minus Italica difference, %; measured here: selective DUX4 reporter inhibition;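 worked out from the two reporters; negative = selective loss of the DUX4 reporter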
DUX4 inh control: second read-out of DUX4 inh, no call of its own (marks repeat the call); activity change, negative = inhibition, %; measured here: Italica tet-on control reporter;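 0 = neutral control and -100 = positive control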
* hit, by the source's call; ? = inconclusive; . = not tested or not shown. Only part of the results is shown (hit frequency here may not be typical).

Every second line gives: DUX4 inh, DUX4 inh control, DUX4 inh difference
- COC(=O)[C@@H]1[C@@H](CO)[C@@H]2Cn3c(ccc(C4=CCCCC4)c3=O)[C@@H]2N1C(=O)C1CCC1
 : -6, -2.8, -3
- CC(=O)N1CC2(C1)[C@@H](c1ccccc1)[C@@H](CO)N2C(=O)c1ccncc1
 : 13, 2.1, 11
- O=C(C[C@@H]1C=C[C@@H](NS(=O)(=O)c2ccc(F)cc2)[C@@H](CO)O1)NCc1ccncn1
 : 0, 0.0, 0
- N#C[C@H]1[C@H](c2ccc(C#CC3CCCC3)cc2)[C@@H](CO)N1S(=O)(=O)c1ccccc1
 : -3, 1.0, -4
- COc1ccccc1S(=O)(=O)N[C@@H]1C=C[C@H](CC(=O)N2CCOCC2)O[C@H]1CO
 : -5, -2.8, -2
- COCC(=O)N1CC(=O)N2[C@H](CO)[C@H](c3ccc(C#CCc4ccccc4)cc3)[C@H]2C1
 : ?, ., .
- O=C(C[C@@H]1C[C@@H]2c3cc(NC(=O)Cc4ccncc4)ccc3O[C@@H]2[C@@H](CO)O1)NCc1ccccn1
 : 0, 3.0, -3
- COc1cc(CN2CC3(CCN(C(=O)Nc4cccc(F)c4)CC3)c3c(n(C)c4cc(OC)ccc34)[C@@H]2CO)cc(OC)c1
 : ?, ., .
- COCC(=O)N1CC[C@@H]2[C@@H](CO)Nc3ccc(C#Cc4ccccc4)cc3[C@@H]21
 : 9, 13, -4
- C[C@@H]1CN([C@@H](C)CO)C(=O)c2cc(/C=C/c3ccccc3)cnc2O[C@H]1CN(C)Cc1cccc(C(=O)O)c1
 : 2, 0.2, 1
- C[C@@H]1CN([C@@H](C)CO)C(=O)c2cccc(NC(=O)Nc3ccc(F)cc3)c2O[C@H]1CN(C)Cc1ccc(-c2ccccc2)cc1
 : 3, 0.9, 2
- C[C@H](CO)N1C[C@H](C)[C@H](CN(C)C(=O)CN2CCOCC2)Oc2ncc(-c3ccncc3)cc2C1=O
 : 4, 2.5, 2
- CCNC(=O)Nc1ccc2c(c1)C(=O)N(C)[C@H]1CC[C@H](CC(=O)Nc3ccc(C)cc3)O[C@@H]1CO2
 : -4, 0.2, -4
- C[C@@H]1CCCCO[C@@H](CN(C)C(=O)Nc2cccc3ccccc23)[C@@H](C)CN([C@H](C)CO)C(=O)c2cc(NS(=O)(=O)c3cn(C)cn3)ccc2O1
 : -4, -0.9, -3
- COc1ccc(S(=O)(=O)N(C)C[C@H]2Oc3ccc(N(C)C)cc3CC(=O)N([C@@H](C)CO)C[C@H]2C)cc1
 : -6, 4.3, -11
- O=C(C[C@H]1CC[C@H]2[C@@H](COC[C@@H](O)CN2Cc2ccc(C(F)(F)F)cc2)O1)NCCc1ccccc1
 : ?, ., .
- CCCN1[C@@H]2c3ccc(-c4ccc(F)cc4)c(=O)n3C[C@H]1[C@H](CO)[C@H]2C(=O)NCCc1cn(C)cn1
 : 1, 3.0, -2
- CO[C@@H](CN(C)S(=O)(=O)c1cccc(Cl)c1)[C@H](C)CN(C(=O)Nc1ccccc1F)[C@@H](C)CO
 : -5, 3.4, -8
- CNC(=O)C[C@H]1CC[C@@H]2[C@H](COc3ccc(NC(=O)c4ccccc4Cl)cc3C(=O)N2C)O1
 : 1, 3.9, -3
- CC(=O)NC[C@H]1[C@@H](c2ccc(-c3cccnc3)cc2)[C@@H](CO)N1C(=O)C1CC1
 : -4, 0.1, -4
- CC(C)NC(=O)N1[C@@H]2CN(C(=O)c3ccncc3)c3ccccc3[C@@H]2[C@@H]1CO
 : -3, -0.5, -2
- COc1ccc(C#Cc2ccc3c(c2)O[C@H](CN(C)S(=O)(=O)c2ccccc2F)[C@H](C)CN([C@H](C)CO)S3(=O)=O)cc1
 : -4, -0.5, -3
- N#C[C@H]1[C@@H](c2ccc(-c3ccncc3)cc2)[C@@H](CO)N1C(=O)C1CC1
 : 3, 5.7, -3
- C/C=C/c1ccc([C@H]2[C@@H](CO)N(C(=O)C3CC3)[C@@H]2CNC(=O)NC(C)C)cc1
 : -2, 3.1, -6
- O=C(c1cccnc1)N1C[C@@H]2[C@H](c3ccccc31)[C@H](CO)N2CC1CCCCC1
 : -2, 3.0, -5
- N#C[C@@H]1[C@@H](c2ccc(C3=CCCCC3)cc2)[C@@H](CO)N1C(=O)c1ccccn1
 : 0, 2.1, -3
- C[C@@H]1CN([C@H](C)CO)S(=O)(=O)c2ccc(-c3cccc(F)c3)cc2O[C@H]1CN(C)S(=O)(=O)c1ccccc1
 : 2, 3.6, -2
- O=C(c1ccncc1)N1CC[C@@H]2[C@@H](CO)Nc3ccc(-c4ccc(F)cc4)cc3[C@@H]21
 : ?, ., .
- Cc1ccc(S(=O)(=O)NCC[C@@H]2CC[C@H](NS(=O)(=O)c3ccccc3Cl)[C@H](CO)O2)cc1
 : 2, -1.6, 4
- COc1ccccc1C#Cc1ccc2c(c1)[C@@H]1[C@@H](CCN1C(=O)c1ccccc1)[C@@H](CO)N2
 : ?, ., .
- C[C@@H]1CN([C@H](C)CO)C(=O)c2cccc(NC(=O)CCCCCC(=O)Nc3ccccc3N)c2O[C@@H]1CN(C)Cc1ccc(Cl)c(Cl)c1
 : -1, 1.4, -2
- Cc1ccc(CN2CC(=O)N3[C@H](CO)[C@@H](c4ccc(-c5ccccc5F)cc4)[C@@H]3C2)cc1
 : 8, 17, -9
- COc1ccccc1-c1ccc([C@H]2[C@@H](CO)N3CCCCN(Cc4ccncc4)C[C@@H]23)cc1
 : 6, 6.2, -1
- O=C(NCc1ccccn1)[C@H]1[C@H](CO)[C@H]2Cn3c(cccc3=O)[C@H]2N1CCc1ccccc1
 : -5, -2.6, -2
- COc1ccc(NC(=O)N(C)C[C@@H]2Oc3ccc(NS(=O)(=O)c4cccs4)cc3CC(=O)N([C@@H](C)CO)C[C@H]2C)cc1
 : 1, -1.4, 3
- O=C(c1ccncc1)N1CCCCN2[C@@H](CO)[C@H](c3ccc(-c4ccccc4)cc3)[C@@H]2C1
 : 32, 13, 20
- COc1ccc(C(=O)Nc2ccc3c(c2)C(=O)N(C)[C@H]2CC[C@@H](CC(=O)NCC4CC4)O[C@H]2CO3)cc1
 : -2, -0.1, -2
- CC(C)CC#Cc1ccc2c(c1)O[C@H](CN(C)C(=O)Cc1ccncc1)[C@H](C)CN([C@H](C)CO)S2(=O)=O
 : 1, -0.3, 1
- CN1c2ccc(-c3cccc(C#N)c3)cc2[C@H]2[C@H](CCN2C(=O)CC2CC2)[C@H]1CO
 : -7, -7.3, 0
- COCC#Cc1cnc2c(c1)C(=O)N([C@H](C)CO)C[C@H](C)[C@@H](CN(C)C(=O)Nc1ccccc1OC)O2
 : 1, 4.5, -3
- O=C(Nc1ccccc1)N1C[C@H]2[C@@H](c3ccccc31)[C@@H](CO)N2C(=O)c1cccnc1
 : -1, -0.8, 0
- COC(=O)C[C@H]1CC[C@H]2[C@@H](COc3ccc(NC(=O)c4ccc(C#N)cc4)cc3C(=O)N2C)O1
 : 4, -12, 15
- O=C(NCc1ccncn1)[C@@H]1[C@@H](CO)[C@@H]2Cn3c(ccc(-c4ccc(F)cc4)c3=O)[C@@H]2N1CC1CC1
 : 0, 0.4, -1
- O=C(NC[C@@H]1[C@H](c2ccccc2)[C@H](CO)N1C(=O)C1CCC1)NC1CCCC1
 : -3, -0.7, -2
- C[C@H]1CCCCO[C@H](CN(C)C(=O)CCCN(C)C)[C@@H](C)CN([C@@H](C)CO)C(=O)c2cc(NC(=O)c3ccccc3)ccc2O1
 : -1, 2.4, -3
- CC(C)(O)C#Cc1ccc([C@H]2[C@@H](CO)N3CCCCN(S(C)(=O)=O)C[C@H]23)cc1
 : 10, 4.5, 6
- O=C(NC[C@H]1[C@H](c2ccccc2)[C@H](CO)N1CC1CCCC1)C1CC1
 : -2, 2.0, -4
- COc1ccc2c3c(n(C)c2c1)[C@@H](CO)NCC31CCN(Cc2ccc(Cl)cc2)CC1
 : ?, ., .
- N#C[C@@H]1[C@@H](c2ccc(-c3ccc(F)cc3)cc2)[C@@H](CO)N1S(=O)(=O)Cc1ccccc1
 : 5, 7.6, -3
- COCC(=O)N1[C@@H]2c3ccc(C4=CCCC4)c(=O)n3C[C@@H]2[C@@H](CO)[C@@H]1C(=O)N1CCCCC1
 : -6, 3.0, -9
- COc1ccc(CNC(=O)C[C@H]2C=C[C@@H](NC(=O)Nc3ccc4c(c3)OCO4)[C@H](CO)O2)cc1
 : 8, 4.2, 4
- COCC(=O)N1CC2(C1)CN(Cc1ccccc1Cl)[C@H](CO)c1[nH]c3cc(OC)ccc3c12
 : -5, 12, -17
- CC(C)[C@@H]1COCc2cn(nn2)CCC[C@@H](C)C(=O)N1
 : 0, 4.0, -4
- COc1ccc2c3c([nH]c2c1)[C@H](CO)N(Cc1cccc(F)c1)CC31CN(CC2CC2)C1
 : ?, ., .
- CCCN1[C@H](C(=O)OC)[C@@H](CO)[C@@H]2Cn3c(ccc(-c4cccc(OC)c4)c3=O)[C@@H]21
 : 6, 0.3, 5
- COc1ccc2c3c([nH]c2c1)[C@H](CO)N(C(=O)CN1CCOCC1)CC31CN(C)C1
 : 11, 11, 0
- CNC[C@H]1OCCCC[C@@H](C)Oc2ccc(NC(=O)Nc3ccc(OC)cc3)cc2C(=O)N([C@@H](C)CO)C[C@@H]1C
 : -2, 1.5, -4
- O=C(C[C@@H]1C=C[C@@H](NC(=O)c2ccc3c(c2)OCO3)[C@@H](CO)O1)NC1Cc2ccccc2C1
 : 3, 1.4, 1
- CN1C(=O)c2cc(NS(=O)(=O)c3cccc(F)c3)ccc2OC[C@@H]2O[C@H](CC(=O)N3CCc4ccccc4C3)CC[C@@H]21
 : 2, -1.4, 4
- COc1ccc(NC(=O)N2CC(=O)N3[C@@H](CO)[C@H](c4ccc(Br)cc4)[C@@H]3C2)cc1
 : 6, 8.8, -2

(continued)
Every second line gives: DUX4 inh, DUX4 inh control, DUX4 inh difference
- O=C(C[C@@H]1C[C@@H]2c3cc(NC(=O)Nc4ccccc4)ccc3O[C@@H]2[C@H](CO)O1)NCCN1CCCCC1
 : 3, -0.7, 4
- CCC(=O)N1[C@H](CNC(C)=O)[C@H](c2ccc(-c3ccc(F)cc3)cc2)[C@@H]1CO
 : -2, -1.9, 0
- O=C(NCCc1ccccc1)[C@H]1[C@H](CO)[C@H]2Cn3c(cccc3=O)[C@H]2N1Cc1cccnc1
 : 4, 0.6, 3
- C[C@@H](NC(=O)C[C@@H]1CC[C@@H]2[C@H](COC[C@H](O)CN2C(=O)Nc2cc(Cl)cc(Cl)c2)O1)c1ccccc1
 : 2, -18, 20
- O=C(C[C@@H]1CC[C@H]2[C@@H](COC[C@@H](O)CN2Cc2cccc(Cl)c2)O1)N1CCOCC1
 : 10, -2.6, 13
- N#C[C@@H]1[C@H](c2ccc(C3=CCCCC3)cc2)[C@H](CO)N1C(=O)c1cccc(F)c1
 : 0, 2.9, -3
- COc1ccc(S(=O)(=O)Nc2ccc3c(c2)CC(=O)N([C@H](C)CO)C[C@H](C)[C@H](CN(C)C(=O)Nc2c(C)noc2C)O3)cc1
 : -2, 1.8, -3
- C[C@@H](O)C#Cc1ccc2c(c1)O[C@H](CN(C)C(=O)C1CCCCC1)[C@@H](C)CN([C@@H](C)CO)S2(=O)=O
 : -5, -1.4, -3
- O=C(CC1CC1)N1CC(=O)N2[C@H](CO)[C@@H](c3ccc(/C=C/c4ccccc4)cc3)[C@@H]2C1
 : -7, -3.3, -3
- CCC(=O)N1CC[C@H]2[C@@H]1c1cc(-c3ccccc3)ccc1N(C)[C@H]2CO
 : 8, -17, 25
- COc1ccc(-c2cn(CC[C@H]3CC[C@@H](NC(=O)c4cnccn4)[C@@H](CO)O3)nn2)cc1
 : -2, -4.9, 3
- COc1ccc(NC(=O)Nc2ccc3c(c2)C(=O)N([C@@H](C)CO)C[C@@H](C)[C@H](CN(C)S(=O)(=O)c2c(C)noc2C)OCCCC[C@H](C)O3)cc1
 : -4, -1.4, -2
- O=C(C[C@H]1CC[C@H]2[C@@H](COC[C@H](O)CN2Cc2nccs2)O1)NCc1ccccc1F
 : 3, -1.9, 5
- COCC(=O)N1CC2(CN(Cc3ccccc3)C2)c2c([nH]c3cc(OC)ccc23)[C@H]1CO
 : 4, 17, -13
- CN(C)C(=O)[C@@H]1[C@@H](CO)[C@@H]2Cn3c(ccc(-c4ccccc4)c3=O)[C@H]1N2Cc1ccccn1
 : 7, 3.9, 3
- C[C@@H]1CN([C@H](C)CO)C(=O)c2c(c3ccccc3n2C)-c2ccccc2CO[C@@H]1CN(C)S(=O)(=O)c1cccc(F)c1
 : ?, ., .

Single values from above:
O=C(C[C@@H]1C[C@@H]2c3cc(NC(=O)Nc4ccccc4)ccc3O[C@@H]2[C@H](CO)O1)NCCN1CCCCC1 – DUX4 inh control = -0.7
N#C[C@@H]1[C@H](c2ccc(C3=CCCCC3)cc2)[C@H](CO)N1C(=O)c1cccc(F)c1 – DUX4 inh control = 2.9
O=C(NCCc1ccccc1)[C@H]1[C@H](CO)[C@H]2Cn3c(cccc3=O)[C@H]2N1Cc1cccnc1 – DUX4 inh = 4
O=C(CC1CC1)N1CC(=O)N2[C@H](CO)[C@@H](c3ccc(/C=C/c4ccccc4)cc3)[C@@H]2C1 – DUX4 inh = -7
CCC(=O)N1[C@H](CNC(C)=O)[C@H](c2ccc(-c3ccc(F)cc3)cc2)[C@@H]1CO – DUX4 inh difference = 0
COc1ccc(-c2cn(CC[C@H]3CC[C@@H](NC(=O)c4cnccn4)[C@@H](CO)O3)nn2)cc1 – DUX4 inh difference = 3

Full records as entered above.
Profile of O=C(c1cccnc1)N1C[C@@H]2[C@H](c3ccccc31)[C@H](CO)N2CC1CCCCC1 : DUX4 inh = -2; DUX4 inh control = 3.0; DUX4 inh difference = -5
Profile of CC(C)(O)C#Cc1ccc([C@H]2[C@@H](CO)N3CCCCN(S(C)(=O)=O)C[C@H]23)cc1 : DUX4 inh = 10; DUX4 inh control = 4.5; DUX4 inh difference = 6
